High-throughput results deposited in PubChem by National Center for Advancing Translational Sciences (NCATS).
Six1-Eya2 blk – inhibitors of human Six1/Eya2 interaction. Q15475+O00167. AlphaScreen GST-Six1/His-Eya2 binding, biochemical; stronger effect = lower value; control for the full effect not named in the record. activity change, % (test concentration not listed). hit rate 0.56% among 360,000; in the data active = activity change below about -65%; inconclusive = about -30% to -65%; inactive = above about -30%; also: % is scaled to controls: 0 for no effect and ±100 for the full control effect; compound concentration not given in the record
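Six1/Eya2 binding was read as AlphaScreen signal after compounds were pinned into GST-Six1 plus His-tagged Eya2 (5X stock 250/500 nM) in pH 8.0 Tris/NaCl/TCEP buffer, beads added, then incubated 1 h, 37 C, dark.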
gsp ag – agonists of gsp mutant (McCune-Albright syndrome). AID 624287. hit rate 0.13% among 340,000. Potency, µM (titrated, usually from 76.9 µM), for inactives: at the highest dose activation (cAMP increase), hits mostly activators. gsp mutant cells, cAMP HTRF, 30 min; control for the full effect not named in the record; active = well fitted activation curve with a large enough effect; inconclusive = small, poorly fitted or top-dose-only effect, or another doubt; inactive = no such curve, though single readings can be large or run the other way; cell line not stated here;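 also: phosphodiesterase inhibitor Ro 20-1724 added with compounds to block cAMP breakdown; potency is read from the fitted curve at half-maximal effect; nearly all actives have a fitted effect of over 60% in size; about a fifth of the inactives were tested at one dose only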
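Cells stably selected in G418 were plated at 2000/well, grown 16-24 hr, then given compounds in DMSO with the PDE inhibitor […] (300 uM solution added) for 30 min at 37C; cAMP was read by HTRF.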
D2 PAM – potentiates the human D2 dopamine receptor allosterically | potentiation, % (concentration not given with the values) | DiscoveRx D2 beta-arrestin cells, luminescence, 90 min; 100% = 57 uM dopamine signal | AID 624464 | hit rate 0.23% among 360,000 | P14416; active = potentiation of 50% or more; inconclusive = 30% to 50%; inactive = 30% or less;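 also: compound concentration not given in the record; tested on top of an EC20 dose of dopamine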
Target sequence (P14416 whole entry, looked up): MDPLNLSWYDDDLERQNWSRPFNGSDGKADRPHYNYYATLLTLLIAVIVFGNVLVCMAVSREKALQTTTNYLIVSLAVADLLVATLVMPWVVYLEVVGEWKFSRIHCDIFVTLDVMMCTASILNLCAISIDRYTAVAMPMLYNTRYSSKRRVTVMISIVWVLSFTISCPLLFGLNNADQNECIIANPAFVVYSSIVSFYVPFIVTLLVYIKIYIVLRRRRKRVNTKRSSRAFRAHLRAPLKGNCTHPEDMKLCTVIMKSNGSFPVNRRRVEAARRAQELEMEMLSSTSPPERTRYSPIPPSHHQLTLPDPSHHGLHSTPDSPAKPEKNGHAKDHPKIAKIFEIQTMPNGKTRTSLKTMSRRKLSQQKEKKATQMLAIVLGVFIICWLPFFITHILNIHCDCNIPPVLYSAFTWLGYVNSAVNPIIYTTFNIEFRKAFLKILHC
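PathHunter D2 cells, attached overnight at 37 deg C, received compound in DMSO plus dopamine at EC20 (50 nM final) for 90 min at 37 deg C. Beta-arrestin recruitment was read as luminescence after 1 h with detection reagent at ambient temperature.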
gsp antagonist – antagonizes gsp, the McCune-Albright syndrome mutation; hit rate 0.4% among 340,000; AID 624288; gsp-mutant cells, cAMP HTRF, 30 min; control for the full effect not named in the record; Potency, µM (titrated, usually from 76.9 µM), inactives show top-dose activity change, negative = inhibition, actives largely listed as inhibitors; active = falling curve of any shape with a large fitted effect; inconclusive = falling curve, mostly with a smaller effect; inactive = flat or rising curve; cell line not stated here;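 also: intracellular cAMP measured with PDE inhibitor Ro 20-1724 present during compound exposure; potency is read from the fitted curve at half-maximal effect; % is scaled to controls: 0 for no effect and ±100 for the full control effect; nearly all actives have a fitted effect of over 65% in size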
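HTRF cAMP measurement after 30 min RT detection following 30 min, 37C compound treatment alongside […] (added as 300 uM solution) in G418-selected cells seeded at 2000/well and grown 16–24 h.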
D2 ag – agonists of human D2 dopamine receptor (beta-arrestin); P14416; DiscoveRx PathHunter D2 beta-arrestin, luminescence, 90 min; 100% = 57 uM dopamine signal; activation, % (test concentration not listed); hit rate 0.084% among 360,000; in the data active = activation above about 40%; inconclusive = about 15% to 40%; inactive = below about 15%; also: compound concentration not given in the record; the text of the record calls up to 30% inactive
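DiscoveRx PathHunter D2 beta-arrestin cells (2,100/well) attached overnight, then compound-stimulated 90 min at 37 C in HBSS/10 mM HEPES/0.1% Tween-20 buffer; beta-galactosidase complementation read by luminescence after 1 h at ambient temperature. Dopamine 57 uM final (EC100) as control.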
CtBP-E1A inh – blocks the CtBP interaction with E1A. AID 651724. hit rate 0.49% among 340,000. AlphaScreen GST-E1A/His-CtBP binding, 1536-well; stronger effect = lower value; control for the full effect not named in the record. activity change, % (test concentration not listed); in the data active means activity change below about -65%; inconclusive means about -30% to -65%; inactive means above about -30%; also: % is scaled to controls: 0 for no effect and ±100 for the full control effect; compound concentration not given in the record
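Homogeneous bead-based format: GST-tagged E1A captured on glutathione donor beads, His-tagged CtBP on nickel acceptor beads; compounds precede bead addition by 2 h at 37 °C.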
An asterisk follows results filed as active; [ ] = dose if it differs, or a comment.

The first five entries, ahead of the listing:
`COc1cccc(-c2cnc(C(O)c3ccc(CN4CCCC4)cc3)[nH]2)c1` (configuration not stated) gave Six1-Eya2 blk -7, D2 PAM -3, D2 ag 5.7 and CtBP-E1A inh -5.
For CC(NC(=O)CN1C(=O)NC(C)(c2cccc3ccccc23)C1=O)c1ccccc1 (configuration not stated) the results were Six1-Eya2 blk 5, gsp ag -3%[15.4 µM], D2 PAM -16, gsp antagonist 8%, D2 ag -3.2 and CtBP-E1A inh -10.
`CCCOc1ccc(N2C(=O)CC(S/C(N)=N/N=C(\C)c3cccs3)C2=O)cc1` (configuration not stated) gave Six1-Eya2 blk -21, gsp ag 9%, D2 PAM 4, gsp antagonist -22%, D2 ag 0.2 and CtBP-E1A inh -20.
Screening Cc1ccc(-c2nn(-c3cccc(F)c3)cc2CN(Cc2nccn2C)C(C)C)o1 returned Six1-Eya2 blk -19, gsp ag -1%[15.4 µM], D2 PAM -18, gsp antagonist -15%, D2 ag -4.3 and CtBP-E1A inh -10.
Cc1nn(Cc2ccc(F)cc2)c(C)c1NC(=O)CCCn1nc([N+](=O)[O-])cc1C was read as Six1-Eya2 blk 5, gsp ag 3%, D2 PAM -13, gsp antagonist -1% and D2 ag -3.5.

The whole of this part, repeating the preview:
`COc1cccc(-c2cnc(C(O)c3ccc(CN4CCCC4)cc3)[nH]2)c1` (configuration not stated) gave Six1-Eya2 blk -7, D2 PAM -3, D2 ag 5.7 and CtBP-E1A inh -5.
For CC(NC(=O)CN1C(=O)NC(C)(c2cccc3ccccc23)C1=O)c1ccccc1 (configuration not stated) the results were Six1-Eya2 blk 5, gsp ag -3%[15.4 µM], D2 PAM -16, gsp antagonist 8%, D2 ag -3.2 and CtBP-E1A inh -10.
`CCCOc1ccc(N2C(=O)CC(S/C(N)=N/N=C(\C)c3cccs3)C2=O)cc1` (configuration not stated) gave Six1-Eya2 blk -21, gsp ag 9%, D2 PAM 4, gsp antagonist -22%, D2 ag 0.2 and CtBP-E1A inh -20.
Screening Cc1ccc(-c2nn(-c3cccc(F)c3)cc2CN(Cc2nccn2C)C(C)C)o1 returned Six1-Eya2 blk -19, gsp ag -1%[15.4 µM], D2 PAM -18, gsp antagonist -15%, D2 ag -4.3 and CtBP-E1A inh -10.
Cc1nn(Cc2ccc(F)cc2)c(C)c1NC(=O)CCCn1nc([N+](=O)[O-])cc1C was read as Six1-Eya2 blk 5, gsp ag 3%, D2 PAM -13, gsp antagonist -1% and D2 ag -3.5.
COc1cc2ncnc(Nc3ccc4c(c3)OCO4)c2cc1OC was read as Six1-Eya2 blk -11, gsp ag 7%, D2 PAM -2, gsp antagonist -10%, D2 ag 2.0 and CtBP-E1A inh -24.
CC(=O)c1ccc(N2CCN(C(=S)Nc3cc(C)ccc3C)CC2)cc1 was read as Six1-Eya2 blk 6, gsp ag 5%, D2 PAM -8, gsp antagonist -2%, D2 ag 2.4 and CtBP-E1A inh -5.
For CCOC(=O)c1ccc(Oc2nc(NC(C)(C)C)nc(N(C)C)n2)cc1 the results were Six1-Eya2 blk 8, gsp ag 11%, D2 PAM -9, gsp antagonist -10%, D2 ag -0.4 and CtBP-E1A inh -6.
`COCCN(C(=O)CNC(=O)c1ccco1)C(C(=O)NC1CCCC1)c1cccs1` (configuration not stated) gave Six1-Eya2 blk 5, gsp ag -15%, D2 PAM -1, gsp antagonist -11%, D2 ag -2.7 and CtBP-E1A inh 5.
For CCc1cccc(OCC(O)Cn2c(N3CCCCC3)nc3c2c(=O)[nH]c(=O)n3C)c1 (configuration not stated) the results were Six1-Eya2 blk 0, gsp ag -26%, D2 PAM 2, gsp antagonist -3%, D2 ag -3.7 and CtBP-E1A inh 5.
For C[C@@H](O)C1NC(=O)[C@H](CCCCN)NC(=O)c2cc([N+](=O)[O-])cc(I)c2OCC[C@@H](C(N)=O)NC1=O (some centres not stated) the results were Six1-Eya2 blk 1, gsp ag -13%, D2 PAM -1, gsp antagonist 9% and D2 ag 0.2.
`COc1ccc(NC(C)=O)cc1CNC(=O)COc1ccccc1C(=O)Nc1cccc(C)c1C` gave Six1-Eya2 blk 2, gsp ag inconclusive, D2 PAM 4, gsp antagonist 1%, D2 ag 11 and CtBP-E1A inh 1.
Screening Nc1ccc(SCc2nc3cccc4c3n2CCC4)cc1 returned Six1-Eya2 blk -2, gsp ag 20%, D2 PAM -8, gsp antagonist -3% and D2 ag 1.7.
Screening CCNC(=O)C12CCC(C)(c3nc4cc(C)c(C)cc4nc31)C2(C)C (configuration not stated) returned Six1-Eya2 blk 3, gsp ag -5%[15.4 µM], D2 PAM 7, gsp antagonist 0%, D2 ag -1.9 and CtBP-E1A inh 8.
Cc1cc(Br)c(NC(=O)c2ccccc2[N+](=O)[O-])cc1C was read as Six1-Eya2 blk -2, gsp ag -3%, D2 PAM -7, gsp antagonist 2% and D2 ag -5.9.
`CCN=C1SC(CC(=O)Nc2ccc(C(F)(F)F)cc2)C(=O)N1CC` (configuration not stated) gave Six1-Eya2 blk 1, gsp ag 3%, D2 PAM 5, gsp antagonist 4%, D2 ag 3.4 and CtBP-E1A inh 12.
Clc1ccc(-c2cnc3ccccc3n2)cc1 was read as Six1-Eya2 blk 10, gsp ag 0%, D2 PAM 3, gsp antagonist 1%, D2 ag -1.9 and CtBP-E1A inh 12.
O=C(O)CCCC(=O)N1CCN(c2ncccn2)CC1 was read as Six1-Eya2 blk -10, gsp ag 4%[15.4 µM], D2 PAM -2, gsp antagonist 5%, D2 ag -1.2 and CtBP-E1A inh 2.
O=C1CN(C(=O)COC(=O)c2ccc(Cl)cc2)c2ccccc2N1 was read as Six1-Eya2 blk 2, gsp ag -22%, D2 PAM -4, gsp antagonist 1%, D2 ag -2.6 and CtBP-E1A inh 8.
`O=C(Nc1ccc(N2CCN(C(=O)c3ccc(Cl)cc3)CC2)cc1)c1ccc(Br)o1` gave Six1-Eya2 blk -10, gsp ag -38%[inhibitor], D2 PAM 10, gsp antagonist -12%, D2 ag 4.1 and CtBP-E1A inh -16.
`CCN(CC)Cc1c(C(=O)N/N=C/c2cccnc2)nnn1-c1nonc1N` gave Six1-Eya2 blk -10, gsp ag -13%, D2 PAM -3, gsp antagonist -9%, D2 ag -2.8 and CtBP-E1A inh 1.
Screening CC(=O)c1cccc(NC(=O)C2CC(=O)N(c3ccc4c(c3)OCCO4)C2)c1 (configuration not stated) returned Six1-Eya2 blk 0, gsp ag -44%[inhibitor], D2 PAM 16, gsp antagonist 1%, D2 ag 2.8 and CtBP-E1A inh -2.
`COc1ccc(C2=C(SC)CC2=NC(C)(C)C)cc1` gave Six1-Eya2 blk 4, gsp ag 10%[15.4 µM], D2 PAM -3, gsp antagonist 9%, D2 ag 1.0 and CtBP-E1A inh 3.
`Cc1ccc2ccc[n+](Cc3ccccc3)c2c1` gave Six1-Eya2 blk 3, gsp ag -63%[inhibitor], D2 PAM -13, gsp antagonist 4%, D2 ag -2.3 and CtBP-E1A inh 4.
COCCn1c(SCC(=O)c2c(N)n(C3CC3)c(=O)[nH]c2=O)nc2ccccc21 was read as Six1-Eya2 blk 11, gsp ag -17%, D2 PAM -2, gsp antagonist 0%, D2 ag 8.6 and CtBP-E1A inh 1.
Screening CCNc1nc(SC)nc(N(C#N)CC(=O)OC)n1 returned Six1-Eya2 blk 0, gsp ag -4%, D2 PAM 13, gsp antagonist -2%, D2 ag 5.1 and CtBP-E1A inh 4.
`Cc1ccc(-n2nc3c(c2NC(=O)CC(C)C)CS(=O)(=O)C3)c(C)c1` gave Six1-Eya2 blk -6, gsp ag 0%, D2 PAM -6, gsp antagonist 15%, D2 ag 0.9 and CtBP-E1A inh -4.
For Cc1ccc2[nH]c(C)c(/C=C/c3cc[n+](C)cc3)c2c1 the results were Six1-Eya2 blk 0, gsp ag inconclusive, D2 PAM -11, gsp antagonist inconclusive, D2 ag -0.1 and CtBP-E1A inh -1.
`Cc1ccccc1NS(=O)(=O)c1ccc(C)c(NS(C)(=O)=O)c1C` gave Six1-Eya2 blk 0, gsp ag 30%, D2 PAM -6, gsp antagonist 2%, D2 ag 2.5 and CtBP-E1A inh 6.
`NS(=O)(=O)c1ccc(CCNC(=O)CNCCc2ccc(C(F)(F)F)cc2)cc1` gave Six1-Eya2 blk 7, gsp ag -1%, D2 PAM -11, gsp antagonist 8% and D2 ag -3.8.
Screening Cc1cccc(Oc2ccc3c(c2)cc(C(=O)O)n3C)c1 returned Six1-Eya2 blk -4, gsp ag -3%, D2 PAM -1, gsp antagonist -20%, D2 ag -1.2 and CtBP-E1A inh -13.
Screening CCc1ccc(C(O)c2ncc(-c3ccccc3C(F)(F)F)[nH]2)cc1 (configuration not stated) returned Six1-Eya2 blk -8, D2 PAM -5, D2 ag -2.5 and CtBP-E1A inh -4.
CC1(c2ccccc2)NC(=O)N(CC(=O)Nc2nc(-c3ccccn3)cs2)C1=O (configuration not stated) was read as Six1-Eya2 blk -91*, gsp ag 24%, D2 PAM 0, gsp antagonist 0%, D2 ag 4.0 and CtBP-E1A inh inconclusive.
Screening CCn1c(C)cc(C(=O)COC(=O)c2cccnc2SC)c1C returned Six1-Eya2 blk -19, gsp ag 14%, D2 PAM -8, gsp antagonist -4%, D2 ag 6.4 and CtBP-E1A inh -2.
`COC(=O)c1ccc(Cn2cnc3c(cnn3-c3ccc(Cl)cc3)c2=O)o1` gave Six1-Eya2 blk -2, gsp ag -19%, D2 PAM 0, gsp antagonist 21%, D2 ag -0.6 and CtBP-E1A inh 4.
For CCCCN=C1CC(C)(C)CC(=O)/C1=C(/O)CCC the results were Six1-Eya2 blk 1, gsp ag 1%[15.4 µM], D2 PAM 0, gsp antagonist -3%, D2 ag -3.7 and CtBP-E1A inh 4.
Screening O=C1Nc2c(Br)cc(Br)c3cccc1c23 returned Six1-Eya2 blk -5, gsp ag inconclusive, D2 PAM 0, gsp antagonist 11%, D2 ag 6.9 and CtBP-E1A inh 1.
`Cc1ccc(C(=O)NC2CCc3ccccc3C2=O)cc1` (configuration not stated) gave Six1-Eya2 blk -1, gsp ag 4%[15.4 µM], D2 PAM 21, gsp antagonist 4%, D2 ag 2.5 and CtBP-E1A inh 7.
For Cc1cc(C)n(-c2ccc(C(=O)N3CCC(CO)(Cc4ccccc4)CC3)cc2)n1 the results were Six1-Eya2 blk 1, gsp ag -16%, D2 PAM -10, gsp antagonist 10%, D2 ag -2.7 and CtBP-E1A inh 3.
Screening COc1ccccc1NC(=O)CSc1nnc2ccccn12 returned Six1-Eya2 blk 9, gsp ag -3%, D2 PAM -3, gsp antagonist 9%, D2 ag -3.8 and CtBP-E1A inh 0.
O=C(COc1ccc2ccccc2c1)Nc1ccncc1 was read as Six1-Eya2 blk -3, gsp ag -16%[15.4 µM], D2 PAM 5, gsp antagonist -1%, D2 ag -1.2 and CtBP-E1A inh -1.
